High-throughput results: PubChem BioAssay, National Center for Advancing Translational Sciences (NCATS)
Rango release inh: inhibitors of RanGTP-induced Rango-importin beta complex dissociation. O95149+P62826. Biochemical FRET Rango-importin beta, RanGTP-induced dissociation. Potency, µM (doses to about 46.1 µM), for inactives: at the top dose activity change, negative = inhibition. actives 0.071% (n = 340,000). AID 540253; active means falling FRET ratio curve, often poorly fitted, with flat reads before Ran was added; inconclusive means other falling curves, or compound fluorescence or quenching; inactive means flat or rising ratio curve;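 also: potency is read from the fitted curve at half-maximal effect; % of control where 0% means no effect; nearly all actives have a fitted effect of over 45% in size; -100% = wells without RanGTP and RCC1; the record marks most hits as doubtful in a second field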
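FRET read at 45 min, room temperature: inhibitors block the CFP/YFP signal rise when RanGTP (0.6 uM Ran, 2 mM GTP, 0.2 uM RCC1) frees Rango (0.1 uM) from importin beta (0.25 uM). Pre-read after 5 min compound exposure flags interference.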
miR-21 reporter: raises the signal of a miR-21 reporter. HeLa miR-21 FLuc reporter, luciferase, 48 h. Potency, µM (series often up to 38.3 µM), without a hit: top-dose reporter change, positive = more light. 340,000 tested, under 10 active. AID 2288; active = well fitted rising curve with a large enough effect; inconclusive = small, poorly fitted or top-dose-only effect; inactive = no such curve, though single readings can be large or run the other way;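 also: % of control where 0% means no effect; miR-21 action dims this reporter so a rising signal means less miR-21 action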
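HeLa cells stably expressing CMV-driven firefly luciferase with a downstream miR-21 binding sequence, endogenously expressing miR-21, were treated with titrations (up to about 40uM final) for 48 hours at 37 degree Celsius. Luciferase luminescence was read after lysis.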
Rango complex inh: Rango-importin beta binding inhibition. Potency, µM (highest dose often 92.2 µM), without a hit: top-dose inhibition of complex formation. Q14974. actives 0.031% (n = 340,000). AID 540263. Rango CFP/YFP FRET sensor + importin beta, 45 min; active = rising FRET ratio curve, often small or poorly fitted; inconclusive = mostly compound fluorescence or quenching in the first reads; inactive = flat curves in all reads;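 also: potency is read from the fitted curve at half-maximal effect; 0% = DMSO wells and 100% = buffer wells lacking importin beta; nearly all actives have a fitted effect of over 15% in size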
Target sequence (Q14974 whole entry, looked up): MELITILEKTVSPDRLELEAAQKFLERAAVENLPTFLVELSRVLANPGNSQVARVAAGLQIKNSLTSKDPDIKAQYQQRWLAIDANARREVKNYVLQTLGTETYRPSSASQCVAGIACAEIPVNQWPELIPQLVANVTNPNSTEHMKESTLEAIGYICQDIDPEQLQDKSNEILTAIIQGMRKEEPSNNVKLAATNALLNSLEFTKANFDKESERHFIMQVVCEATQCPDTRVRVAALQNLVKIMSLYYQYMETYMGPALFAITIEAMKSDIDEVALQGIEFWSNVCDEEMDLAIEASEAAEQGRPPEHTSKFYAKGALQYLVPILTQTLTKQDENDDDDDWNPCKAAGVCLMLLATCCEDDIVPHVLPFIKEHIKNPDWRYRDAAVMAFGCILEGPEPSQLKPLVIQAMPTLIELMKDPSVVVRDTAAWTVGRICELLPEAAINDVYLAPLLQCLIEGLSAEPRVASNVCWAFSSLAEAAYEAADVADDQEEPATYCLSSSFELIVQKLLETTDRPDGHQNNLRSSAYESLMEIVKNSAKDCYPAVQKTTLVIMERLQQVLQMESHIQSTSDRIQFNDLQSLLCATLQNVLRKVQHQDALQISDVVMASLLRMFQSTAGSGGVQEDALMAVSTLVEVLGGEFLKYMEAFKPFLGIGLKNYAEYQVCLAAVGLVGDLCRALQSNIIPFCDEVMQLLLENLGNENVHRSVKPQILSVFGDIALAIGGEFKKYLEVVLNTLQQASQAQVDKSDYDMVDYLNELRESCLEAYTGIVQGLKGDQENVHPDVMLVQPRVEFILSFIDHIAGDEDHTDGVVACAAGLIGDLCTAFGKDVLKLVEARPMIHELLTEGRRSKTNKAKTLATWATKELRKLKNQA
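FRET biosensor Rango (snurportin 1 IBB between N-terminal EYFP and C-terminal Cerulean), 50 nM in PBS/1 mM DTT/0.02% Tween-20/0.1% BSA, preincubated 5 min RT with compound; 0.125 microM importin beta added, 45 min RT, CFP/YFP FRET ratio read.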
GLA inh pH 4.5: inhibitors of human alpha-galactosidase A at pH 4.5 | AID 1467 | 230,000 tested, under 10 active | purified enzyme, 4-MU-alpha-Gal fluorescence, pH 4.5 | activity change, negative = inhibition, % at 105 µM | P06280; inconclusive = small, poorly fitted or top-dose-only inhibition, or a rising curve; inactive = flat fitted curve, though single readings scatter; no compound was filed as active;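 also: 0% = full activity with enzyme and -100% = basal without enzyme; dose as in the result columns while the protocol names 77 µM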
The depositor's hits bear a star; ? = inconclusive; · = no result given; & = joins results of further samples; [ ] = dose if it differs, or a comment. This is a subset, so the mix of outcomes need not match the whole.

entry	Compound	Rango release inh	miR-21 reporter	Rango complex inh	GLA inh pH 4.5
1	CSc1ccccc1NC(=O)CN(C)CC(=O)NCC(=O)Nc1ccc(F)cc1	11%	·	?	·
2	COc1ccc(CN2CCCCCC2)c(C)c1C	3%	0%	0.6%	-11
3	CCCCOc1ccc(S(=O)(=O)N2CCCCC2)cc1	3%	-9%	-5.1%	·
4	O=C(CCc1ccccc1)NCCSc1ccccc1	1%	-49%	2.2%	1
5	O=C(COc1ccc(S(=O)(=O)N2CCOCC2)cc1Cl)NCc1ccco1	2%	9%	3.0%	·
6	COC(=O)CSc1nnc(-c2cccnc2)o1	0%	-10%	-2.9%	3
7	CN1CCN(c2nc(-c3ccccc3)nc(-c3ccccc3)c2C#N)CC1	-14%	1%	-1.1%	0
8	CCC1(c2ccccc2)ON(c2c(Br)cccc2Br)C1=O (stereo unspecified)	19%	·	-1.7%	·
9	Cc1ccc(NC(=O)c2ccccc2OCC(=O)c2ccccc2)cc1	19%	-7%	1.4%	2
10	O=C(CSc1nnc(-c2cc3ccccc3cc2O)n1Cc1ccco1)N1CCc2ccccc2C1	-15%	21%	-0.8%	-7
11	FC(F)(F)c1nc(-c2ccncc2)ncc1-c1nnnn1-c1ccccc1	-6%	4%	1.1%	-10
12	CCc1cc(=O)oc2cc(C)cc(OC(C)C(=O)NC3CC(C)(C)NC(C)(C)C3)c12 (stereo unspecified)	0%	-2%	0.5%	·
13	CCC(=O)N1CCN(c2c(Cl)cccc2[N+](=O)[O-])CC1	0%	-5%	-0.8%	8
14	COc1ccc(C(=O)NCc2ccc(N3CCN(C)CC3)cc2)cc1	1%	-3%	-2.3%	·
15	CCOC(=O)C1(CC2CCCCO2)CCN(Cc2nc3ccccc3[nH]2)CC1 (stereo unspecified)	6%	3%	-2.0%	-1
16	COc1cc(CNc2ccc(C(=O)O)cc2)cc(Br)c1OCC(=O)NC(C)(C)C	1%	-26%	0.3%	-8
17	COc1ccc(C2=NOC(C(=O)NCCCn3ccnc3)C2)cc1 (stereo unspecified)	-13%	4%	-0.7%	3
18	CCS(=O)(=O)NCC(c1cccnc1)N1CCN(c2ccccc2OC)CC1 (stereo unspecified)	0%	-3%	-1.7%	4
19	O=C(O)CCN1c2cccc3cccc(c23)S1(=O)=O	14%	-6%	4.7%	·
20	Cc1c(C(=O)NCc2cccnc2)oc2ccc(S(=O)(=O)N3CCCC(C)C3)cc12 (stereo unspecified)	9%	-4%	-3.3%	-1
21	CC(NC(=O)Cn1cnc2c1c(=O)n(C)c(=O)n2C)c1ccccc1 (stereo unspecified)	-8%	-1%	-0.8%	1
22	CCN1CCN(C(=O)CCn2c(=O)c3cccn3c3cccnc32)CC1	?	0%	?	·
23	CCCC(c1nnnn1CS(=O)(=O)c1ccc(C)cc1)N1CCN(c2ccccc2)CC1 (stereo unspecified)	8%	-2%	-1.4%	-7
24	CC(C)CC(NC(=O)C1CCC(C)CC1)C(=O)Nc1ccccc1F (stereo unspecified)	-3%	-3%	-2.5%	·
25	CCc1ccc(NC(=O)Nc2ccsc2C(=O)OC)cc1	-1%	-39%	-3.0%	·
26	Cc1cccc(NC(=O)c2ccc3c(=O)n4c(nc3c2)CCCCC4)n1	-2%	·	8.3%	·
27	COC(=O)c1sc2cnccc2c1N	?	7%	?	30
28	COc1ccc(CCC(=O)Nc2cccc(S(=O)(=O)N3CCOCC3)c2)cc1OC	0%	·	-0.8%	·
29	Cc1cc2oc(C(=O)NCCc3ccc(S(N)(=O)=O)cc3)cc(=O)c2cc1C	9%	1%&-15%	2.2%	·
30	O=C1Nc2ccc(Br)cc2/C1=C/C(=O)c1ccc2c(c1)OCO2	-18%	21%	1.0%	-9
31	O=C(CCCn1c(=O)[nH]c2ccc(Br)cc2c1=O)NCc1ccc(Cl)cc1	-12%	-6%	2.4%	-1
32	Cn1c(-c2ccccc2)c(C(=O)CCl)c2ccccc21	-3%	?	4.7%	1
33	O=c1cc(C(F)(F)F)oc2c1ccc1ccccc12	-2%	-2%	-0.1%	-6
34	CC(C)Cn1c(CCC(N)=O)nnc1SC(C)C(=O)Nc1ccc2c(c1)OCO2 (stereo unspecified)	8%	·	3.0%	·
35	Cc1csc2c(NCCCN3CCOCC3)ncnc12	14%	-2%	7.8%	-3
36	O=C1c2ccccc2C(=O)N1CCSc1ncn[nH]1	-6%	-5%	-1.8%	-20
37	Cc1ccc(Cl)c(OCC(=O)NN2CCN(C)CC2)c1	2%	3%	3.6%	-1
38	Cc1noc(C)c1CSc1nnc2scc(-c3ccc(Cl)cc3)n12	-14%	-6%	9.3%	5
39	Cc1ccc(CNC(=O)CCC(=O)Nc2nnc(C3CCCCC3)s2)cc1	19%	0%	2.6%	-4
40	O=C(O)C(Cc1ccnc2ccccc12)=NO	2%	·	-0.5%	·
41	COc1cc(/C=C/C(=O)O)cc(Br)c1O	-13%	0%	-1.3%	3
42	Cc1ccccc1-n1c(=O)[nH]c(=O)c2c(N)c(C(=O)c3ccc(Cl)cc3)sc21	9%	-17%	5.5%	-2
43	CN(C)S(=O)(=O)c1ccc(C(=O)NCCN=C2NS(=O)(=O)c3ccccc32)cc1	-1%	7%	-1.1%	·
44	CCOc1ccc(-c2nnn(CCC(=O)O)n2)cc1OC	-3%	-1%	-0.4%	2
45	CN(CC(=O)NCCc1ccc(Cl)cc1)S(=O)(=O)c1ccc2c(c1)c(=O)n(C)c(=O)n2C	25%	-1%	-2.5%	-7
46	CCOC(=O)c1cc(CC)sc1NC(=O)C1CC1	-5%	-2%	-0.4%	1
47	CC1CCCCC12NC(=O)N(CC(=O)NCc1ccco1)C2=O (stereo unspecified)	-3%	·	-1.4%	·
48	COc1ccccc1NC(=O)CSc1ccc(-c2cccs2)nn1	2%	-13%	-0.8%	0[21.1 µM]
49	CC(C)OC(=O)CSc1nnc(-c2ccc([N+](=O)[O-])cc2)o1	-11%	0%	-1.2%	11
50	COc1ccc(NC(=O)C2CCCN2C(=O)Nc2ccc(OC)cc2)cc1 (stereo unspecified)	24%	-3%	-3.3%	·
51	C=CCc1cccc2cc(C(=O)N(CC)CC)c(=O)oc12	-13%	-3%	-1.5%	2
52	COCCNC(=O)c1onc(CSc2cc(C)ccc2C)c1C(=O)O	1%	-18%	?	11
53	CC(=O)c1cc(OC(=O)N2CCOCC2)ccc1OC(=O)N1CCOCC1	3%	-1%	4.0%	-9
54	O=C(NC(=S)Nc1ccc(F)c(Cl)c1)C1CC1	25%	-16%	0.3%	·
55	Cc1ccc(Cn2nnnc2CN2CCC(NC(=O)C(C)(C)C)CC2)cc1	-7%	1%	11%	-11
56	CCCCN1C(=O)C(O)(c2ccccc2)c2cc(Br)ccc21 (stereo unspecified)	-12%	0%	1.2%	·

Other entries follow:
entry	Compound	Rango release inh	miR-21 reporter	Rango complex inh	GLA inh pH 4.5
57	Cc1ccc(-c2nc(C#N)c(NCc3cccc4c3OCO4)o2)cc1	0%	-52%	-0.8%	0
58	O=C(N/N=C/c1ccncc1)c1ccc(OCc2ccccc2)cc1	-11%	-9%	0.2%	-3
59	COc1ccc(C(=O)c2c[nH]c3ccccc23)cc1	-1%	-38%	0.6%	6
60	COc1ccccc1C(CC(=O)N1CCCC1)c1ccc2c(c1)OCO2 (stereo unspecified)	-3%	4%	-1.0%	2
61	Nc1cc(N)cc(C(=O)OCC(=O)Nc2cc(S(=O)(=O)N3CCCCC3)ccc2Cl)c1	-9%	-1%	-2.2%	-16
62	COCCCNC(=O)CSc1ccc(Cl)cc1	-4%	-10%	-1.1%	5
63	Cc1ccc(C)c(NC(=O)CSc2sc3c(O)cc(=O)[nH]c3c2C#N)c1	1%	1%	-5.9%	·
64	COc1cccc(NC(=S)N2CCn3c(nc4ccccc43)C2)c1	-8%	0%	0.4%	-5
65	NS(=O)(=O)c1cccc(Nc2nc3ccccc3nc2NS(=O)(=O)c2ccc(Cl)cc2)c1	3%	·	1.8%	·
66	O=C(NCC(=O)N(c1ccccc1F)C(C(=O)NCC1CCCO1)c1ccccc1)c1ccco1 (stereo unspecified)	2%	5%	-0.1%	-1
67	COc1ccc(/C=C\C(=O)CC(O)(c2ccccc2)C(F)(F)F)cc1 (stereo unspecified)	6%	24%	-4.0%	-15
68	CC1CN(c2nc3c(c(=O)[nH]c(=O)n3C)n2Cc2ccccc2F)CC(C)O1 (stereo unspecified)	-6%	-4%	5.6%	10
69	Cc1ccc(NS(=O)(=O)c2ccc(CCC(=O)NCCO)cc2)cc1	-5%	-1%	-2.3%	-11
70	O=C(CSc1ccc(-c2ccc(F)cc2)nn1)NCCc1ccccc1	11%	0%	1.6%	5
71	Nn1c(SCC(=O)NC2CCCc3ccccc32)nnc1-c1ccc(Cl)cc1Cl (stereo unspecified)	·	2%	·	-2
72	O=C(CSc1nnc(-c2ccccc2F)o1)NC1CCCCC1	0%	-3%	0.7%	·
73	COc1ccccc1/C=C/CN1CCC(n2nccc2NC(=O)C2CC2)CC1	3%	-4%	-8.0%	·
74	O=C(Oc1ccccc1Cl)c1ccc(-n2cncn2)nc1	-12%	0%	0.2%	3
75	O=C(O)Cn1nc(-c2ccccc2)oc1=O	13%	0%	1.1%	2
76	CC(C)c1cc(Nc2cccc(O)c2)cc(C(C)C)c1O	·	-6%	·	-1
77	Clc1ccc(C2=Nn3c(nnc3-c3n[nH]c4c3CCC4)SC2)cc1Cl	4%	-21%	7.3%	-6
78	Cc1cccc(CCNC(=O)CCS(=O)(=O)c2cc3c(cc2C)NC(=O)CO3)c1	-16%	-4%&5%	-0.7%	·
79	CCOc1ccccc1N(C)C(=O)c1ccc2c(=O)n3c(nc2c1)CCCCC3	3%	-9%	0.5%	·
80	CC(=O)Nc1ccc(S(=O)(=O)N2CCN(CCC#N)CC2)cc1	-2%	1%	-0.1%	9
81	CNC(=O)Nc1ccccc1NC(=O)NC	5%	-2%	0.6%	-5
82	COc1ccc(C(=O)NCC2OCCc3ccccc32)cc1OC (stereo unspecified)	-14%	2%	-0.8%	6
83	CC(C)Nc1nc(Oc2ccc(Cl)cc2)cc(C(F)(F)F)n1	-4%	-3%	1.7%	-4
84	O=C(c1ccccc1Cl)N1CCN(S(=O)(=O)N2CCCCC2)CC1	-7%	0%	?	·
85	CCn1c(SCC(=O)NNC(=O)c2ccc(C)cc2)nnc1-c1ccncc1	38%	·	-8.6%	·
86	O=S(=O)(NCCc1ccccc1)c1ccc(Br)s1	4%	-1%	-0.6%	·
87	O=[N+]([O-])c1ccc(O)c(/C=N/n2cnnc2)c1	-10%	-5%	-0.3%	-5
88	CCCCNC(=O)/C=C1\Sc2ccccc2NC1=O	?	-21%	?	3
89	Cc1ccc(Cn2nc(C)c(C(=O)NCC(c3cccs3)N3CCOCC3)c2Cl)cc1 (stereo unspecified)	-10%	·	0.9%	·
90	O=C(Cn1cnc2cc([N+](=O)[O-])ccc2c1=O)Nc1cccc(S(=O)(=O)N2CCCCC2)c1	2%	·	0.1%	·
91	CC(=O)C1CCC2C3CCC4CC(=O)CCC4(C)C3C(O)CC12C (stereo unspecified)	-16%	·	-6.0%	·
92	COCCOC(=O)c1[nH]c2c(c1C)C(=O)CC(c1ccc(F)cc1)C2 (stereo unspecified)	7%	20%	0.5%	-1
93	Cc1ccc(CN2CC(C(=O)N3CCN(c4ccccc4Cl)CC3)CC2=O)cc1 (stereo unspecified)	3%	·	6.4%	·
94	CC12CCC(=O)N1C(C(=O)OCC(=O)Nc1cccc(S(=O)(=O)N3CCCCCC3)c1)CS2 (stereo unspecified)	4%	0%	1.0%	2
